Mtb bLac sens: beta-lactam sensitization of Mtb H37Rv; inhibition, % at 25 µM; AID 434955; hit rate 0.27% among 330,000; M. tuberculosis H37Rv growth with meropenem, percent inhibition; hits of this screen are not shown here;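 active = about 74% or more and at least 40 points above the plate without the antibiotic, then above 30% in a dose series; inconclusive = first-round hits that could not be retested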;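 also: growth measured after seven days incubation then overnight dye step; 0% = bacteria only wells and 100% = bacteria with antibiotic; twin plates without the antibiotic show which effects depend on it; some results filed as inactive read as strong as hits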
YopH inh: blocks Yersinia enterocolitica YopH tyrosine phosphatase | inhibition, %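 (about 10 µM by stock and volumes)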 | fluorescence Ex485/Em525 | hit rate 0.16% among 140,000;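 active = inhibition of 50% or more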;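 also: controls were vehicle for no effect and minimum signal wells for full effect; inactives centre near -20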
RecA splice inh: Mtb RecA intein splicing inhibition; hit rate 0.75% among 290,000; AID 2221; inhibition, %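 (about 9 µM by stock and volumes)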; P9WHJ3; cell-free RecA intein splicing, fluorescence; in the data active = inhibition above about 30%; inconclusive = no clear call, values can overlap the other calls;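 also: 0% = vehicle wells and 100% = reference inhibitor control wells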
Target sequence (P9WHJ3 whole entry, looked up, canonical isoform): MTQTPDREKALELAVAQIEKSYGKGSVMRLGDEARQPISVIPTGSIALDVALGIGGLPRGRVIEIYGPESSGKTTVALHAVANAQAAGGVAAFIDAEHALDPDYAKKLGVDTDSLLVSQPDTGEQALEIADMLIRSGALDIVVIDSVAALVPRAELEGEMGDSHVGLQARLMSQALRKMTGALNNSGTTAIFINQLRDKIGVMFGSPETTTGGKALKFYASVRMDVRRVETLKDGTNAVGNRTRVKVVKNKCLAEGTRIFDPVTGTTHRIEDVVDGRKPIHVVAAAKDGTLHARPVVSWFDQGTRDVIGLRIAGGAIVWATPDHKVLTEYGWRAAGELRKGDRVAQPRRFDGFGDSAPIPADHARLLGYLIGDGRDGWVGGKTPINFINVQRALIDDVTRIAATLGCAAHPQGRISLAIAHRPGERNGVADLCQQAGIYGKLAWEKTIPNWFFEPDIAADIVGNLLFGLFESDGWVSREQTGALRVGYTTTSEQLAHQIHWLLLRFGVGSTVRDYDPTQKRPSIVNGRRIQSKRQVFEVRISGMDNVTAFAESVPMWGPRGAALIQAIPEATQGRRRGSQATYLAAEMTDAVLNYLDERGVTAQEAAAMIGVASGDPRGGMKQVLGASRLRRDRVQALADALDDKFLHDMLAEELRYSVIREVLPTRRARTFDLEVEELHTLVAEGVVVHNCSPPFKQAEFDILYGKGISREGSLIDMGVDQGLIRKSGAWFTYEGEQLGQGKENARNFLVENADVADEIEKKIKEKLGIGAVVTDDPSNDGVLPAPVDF
Mtb H37Rv: M. tuberculosis H37Rv growth inhibitors, H37Rv strain (AID 1626); inhibition, % at 10 µM; hits with a dose series show IC50 in µM; M. tuberculosis H37Rv growth inhibition; higher % means a stronger effect; hit rate 0.95% among 220,000;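 active = confirmed in a dose series; inconclusive = inhibition above 80% but not taken into the dose series; inactive = below 80% or under 30% at every dose of the series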;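 also: bacteria incubated seven days before Alamar blue readout; 0% = bacteria only wells and 100% = bacteria with antibiotic wells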
Arbovirus inh: blocks arbovirus infection; arbovirus infection cell-based antiviral screen; inhibition, % at 10 µM; hit rate 0.37% among 200,000;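 active = inhibition from about 30%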;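 also: bluetongue infection of BSR cells; cell survival read as ATP light after 72 h; 0% = infected wells without compound and 100% = uninfected wells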
Arbovirus inh repeat: recorded beside Arbovirus inh, whose call it bears; inhibition, %; measured here: 10K subset replicate screen; many hits read low in the repeat;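 first of two repeat runs on a subset; 0% = infected and 100% = uninfected wells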
* = called active by the depositor; ? = inconclusive; · = no result given. The list is partial; count on the stated rates, not on these rows.

Sample of the layout, 11 compounds:
SMILES | Mtb bLac sens | YopH inh | RecA splice inh | Mtb H37Rv | Arbovirus inh | others
COc1ccc(-c2cc(-c3n[nH]c(=S)n3-c3ccccc3Cl)[nH]n2)cc1 | 2 | · | 3.9 | 5% | -2
CC(C)(C)c1ccc(C(=O)NNC(=O)Cc2ccccc2)cc1 | -4 | -1 | 2.6 | 2% | 4
CC1(c2ccccc2)NC(=O)N(CCOc2ccccc2)C1=O (stereo unspecified) | -6 | -30 | 0.1 | -1% | 0
CCCCOC(=O)/C(=C/C=C/c1ccccc1)NC(=O)c1ccccc1 | -9 | · | 3.5 | -2% | -6
Cc1cccc(-c2nnc(SCc3cc(=O)[nH]c4ccccc34)n2C)c1 | 2 | 30 | -0.6 | 10% | -2
CCOC(=O)C1=C(C)NC(C)=C(C(=O)OCC)C1c1cccs1 | 8 | -39 | -1.2 | 8% | 5
O=C(N/N=C/c1ccccn1)c1cccnc1 | 8 | · | -2.7 | -7% | ·
Nc1ccc(C(=O)N/N=C/c2cn(Cc3ccccc3)c3ccccc23)cc1 | 7 | · | -0.7 | · | ·
COc1cccc(/C(O)=C2/C(=O)C(=O)N(Cc3cccnc3)C2c2ccco2)c1 (stereo unspecified) | 6 | -22 | -4.3 | 7% | 5
Cc1c(C(=O)OC2CCCCC2)sc2nc[nH]c(=O)c12 | -4 | -23 | 1.1 | 6% | 0
CS(=O)(=O)c1ccc2nc(NC(=O)c3ccccc3Cl)sc2c1 | 6 | · | -0.6 | · | ·

The list itself (from the top)
SMILES | Mtb bLac sens | YopH inh | RecA splice inh | Mtb H37Rv | Arbovirus inh | others
COc1ccc(-c2cc(-c3n[nH]c(=S)n3-c3ccccc3Cl)[nH]n2)cc1 | 2 | · | 3.9 | 5% | -2
CC(C)(C)c1ccc(C(=O)NNC(=O)Cc2ccccc2)cc1 | -4 | -1 | 2.6 | 2% | 4
CC1(c2ccccc2)NC(=O)N(CCOc2ccccc2)C1=O (stereo unspecified) | -6 | -30 | 0.1 | -1% | 0
CCCCOC(=O)/C(=C/C=C/c1ccccc1)NC(=O)c1ccccc1 | -9 | · | 3.5 | -2% | -6
Cc1cccc(-c2nnc(SCc3cc(=O)[nH]c4ccccc34)n2C)c1 | 2 | 30 | -0.6 | 10% | -2
CCOC(=O)C1=C(C)NC(C)=C(C(=O)OCC)C1c1cccs1 | 8 | -39 | -1.2 | 8% | 5
O=C(N/N=C/c1ccccn1)c1cccnc1 | 8 | · | -2.7 | -7% | ·
Nc1ccc(C(=O)N/N=C/c2cn(Cc3ccccc3)c3ccccc23)cc1 | 7 | · | -0.7 | · | ·
COc1cccc(/C(O)=C2/C(=O)C(=O)N(Cc3cccnc3)C2c2ccco2)c1 (stereo unspecified) | 6 | -22 | -4.3 | 7% | 5
Cc1c(C(=O)OC2CCCCC2)sc2nc[nH]c(=O)c12 | -4 | -23 | 1.1 | 6% | 0
CS(=O)(=O)c1ccc2nc(NC(=O)c3ccccc3Cl)sc2c1 | 6 | · | -0.6 | · | ·
O=C(CSc1n[nH]c(=O)n1Cc1ccco1)Nc1ccccc1Cl | -5 | · | -9.0 | 7% | ·
COC(=O)N1N=C(c2ccc(Br)cc2)CC1(O)C(F)(F)F (stereo unspecified) | -4 | -30 | 2.6 | 1% | 1
CCOC(=O)N1CCN(c2ccc(C(=O)c3ccccc3)cc2F)CC1 | 77 | 1 | 11 | 4% | 3
Cc1cc(COc2ccccc2OCc2cc(C)no2)on1 | -15 | -22 | -1.0 | 8% | -2
CCSc1ccccc1C(=O)n1nnc2ccccc21 | 48 | 14 | · | 1% | 3
CCOC(=O)c1[nH]c(C)c(C(=O)NCCCOC(C)C)c1C | 7 | -32 | -0.8 | -3% | -2
O=C(c1noc2c1CCc1ccccc1-2)N1CCCc2ccccc21 | -15 | -41 | 13 | 2% | -9
Cc1cccc(COCC(CC(C)C)N2CCN(C(=O)c3ccc(C(C)(C)C)cc3)CCC2=O)c1 (stereo unspecified) | 8 | -1 | 5.6 | 16% | -36
O=C(/C=C/c1ccc([N+](=O)[O-])s1)N1CCCC1 | 98 | · | -9.3 | ? | 3
COc1ccccc1C(=O)N/C(=C\c1cn(C)c2ccccc12)C(=O)N1CCOCC1 | 4 | · | -3.1 | · | ·
CC(C)(C(N)=O)c1ccccc1 | -7 | · | -0.6 | 1% | ·
Cc1c(NC(=O)Nc2ccccc2[N+](=O)[O-])c(=O)n(-c2ccccc2)n1C | -6 | · | -1.0 | · | ·
Cc1oc(-c2cccc(F)c2)nc1CN1CCCCC1CCn1cccn1 (stereo unspecified) | -3 | · | 1.4 | -7% | 13
Cc1cc(/C=C\c2nc(O)c([N+](=O)[O-])c(=O)[nH]2)c(C)n1-c1ccccc1 | 57 | · | -0.4 | 6% | 21

Other structures
SMILES | Mtb bLac sens | YopH inh | RecA splice inh | Mtb H37Rv | Arbovirus inh | others
CCOc1ccc2nc(NC(=O)C3=NN(c4ccccc4)C(=O)CC3)sc2c1 | 67 | · | · | 72% | 52*
COc1cccc(C(=O)Nc2cc3c(cc2Br)OCCCO3)c1 | -7 | -24 | 1.9 | -1% | -11
CC(=O)c1ccc(NC(=O)[C@@H]2CCCN2C(=O)OC(C)(C)C)cc1 | -4 | · | -0.3 | · | ·
COC(=O)c1sccc1NC(=O)Nc1cc(C)ccc1C | -3 | · | -2.1 | -2% | 1
Cc1ccc(S(=O)(=O)N2CCN(c3cnn(C)c(=O)c3Cl)CC2)cc1 | 0 | · | 2.0 | 7% | 1
N=c1sccn1CC(=O)N1N=C(c2ccc(Cl)cc2)CC1c1ccco1 (stereo unspecified) | 11 | · | 8.1 | 4% | -7
CCOc1ccc(CNc2ccc3c(c2)nc(C)n3C)cc1 | 0 | -161 | · | -15% | 44*
CCSc1nc2ccccc2n1CC(=O)N1CCOCC1 | 6 | -23 | 0.6 | -8% | 0 | Arbovirus inh repeat=0
O=C(Cc1ccccc1)N1CCN(Cc2cccc(Br)c2)CC1 | -5 | · | 3.5 | 2% | ·
O=C(O)CSCCOc1ccc(OCCSCC(=O)O)cc1 | -3 | -25 | -1.2 | -8% | 2
O=C(NCc1ccc2c(c1)OCO2)c1ccc(CSCc2cccc(Cl)c2)o1 | 0 | -4 | 14 | -7% | -13
CC(NC(=O)CN1C(=O)NC(Cc2ccccc2)(Cc2ccccc2)C1=O)C12CC3CC(CC(C3)C1)C2 (stereo unspecified) | -15 | -1 | 11 | -1% | -10
Cc1cc(C(=O)CSc2nnc(N)s2)c(C)n1Cc1ccco1 | -7 | · | 1.0 | 2% | -28
COC(=O)CSc1nnc(-c2ccc(S(=O)(=O)N3CCCC3)cc2)o1 | 96 | · | 0.6 | · | ·
CC(O)[C@H](NC(=O)C1CCN(C(=O)[C@H](Cc2ccccc2)NC(=O)OC(C)(C)C)CC1)C(=O)O (stereo partly specified) | 2 | · | -2.7 | · | ·
CC1=C/C(=N\OS(=O)(=O)c2ccccc2)C(C(C)C)=CC1=O | 88 | -15 | · | -3% | -38
Cc1noc(/C=C/c2ccccc2F)c1S(=O)(=O)N1CCC(C(=O)N2CCN(C)CC2)CC1 | -8 | · | 1.2 | · | ·
FC(F)(F)c1ccccc1NC1=NCCC1 | -2 | · | -1.1 | -1% | 0
FC(F)(F)c1cccc(Sc2nc(-c3ccccc3)nnc2C(F)(F)F)c1 | 99 | -13 | 21 | 7.3µM* | -32
O=C(/C=C/c1ccccc1)NC1CC2CCC1C2 (stereo unspecified) | · | -9 | 0.2 | 0% | 2
Cc1c(C(=O)N2CCC3(CC2)OCCO3)oc2ccc(S(=O)(=O)N3CCCCC3)cc12 | 14 | 6 | 0.7 | 0% | 2
CC1(NC(=O)Nc2ccccc2)CCS(=O)(=O)C1 (stereo unspecified) | -2 | · | -1.2 | 2% | ·
COCc1cc(C2SCC(=O)Nc3c2c(=O)[nH]n3C(C)C)ccc1OC (stereo unspecified) | -6 | -22 | -1.9 | -5% | 3
O=C(NCCCN1CCN(c2ccc(F)cc2)CC1)c1cccc(N2CCCC2=O)c1 | -16 | -1 | -0.4 | 3% | 3
Cc1nc(NC(=O)C2CC2)sc1C(=O)N(C)C | -10 | 18 | 2.6 | -3% | 6

More entries follow.
SMILES | Mtb bLac sens | YopH inh | RecA splice inh | Mtb H37Rv | Arbovirus inh | others
O=C(Nc1nnc(SCc2ccc(F)cc2)s1)c1cnccn1 | 80 | · | -2.4 | 16µM* | -7
COc1cccc(C=Nc2cc(C)on2)c1O | 7 | -10 | -8.4 | -14% | -4
Cc1cc(C)c(C)c(S(=O)(=O)NCC(=O)O)c1C | -6 | -31 | 1.0 | -7% | 4
Cc1ccc(Cn2ncc3c(NN)ncnc32)cc1 | 62 | · | 0.9 | · | ·
CCNC(=O)CC1C(=O)N(c2ccccc2)C(=O)N1CCc1ccc(OC)cc1 (stereo unspecified) | · | -17 | 2.7 | -2% | 14
O=C1CCCC2=C1C(c1ccncc1)c1c(nc(SCc3ccccc3)[nH]c1=O)N2 (stereo unspecified) | -3 | -37 | 6.7 | · | 4
O=C1OC(c2ccccc2)=C/C1=C/c1cccs1 | ? | -12 | 1.1 | -2% | 5
Cc1ccc(N2CC(C(=O)OCC(=O)c3ccc(C)c([N+](=O)[O-])c3)CC2=O)cc1 (stereo unspecified) | 1 | · | 1.7 | · | ·
Cc1cc(C)n(CC(=O)N/N=C/c2cc([N+](=O)[O-])ccc2O)n1 | 67 | -42 | 3.2 | -6% | 4
Cc1csc(N/N=C/c2ccccn2)n1 | 56 | · | · | 8% | -16
CC(=O)Nc1ccc(N(CC(=O)NC2CCCC2)C(=O)CCC(=O)Nc2cc(C)on2)cc1 | 1 | · | -0.1 | · | ·
CCNC(=S)NNC(=O)C1CCCCC1 | 4 | -11 | 1.7 | -5% | 2
CC(=O)Nc1ccc(OCC(O)Cn2ccnc2)cc1 (stereo unspecified) | 6 | · | 1.3 | -7% | -4
CC(C)=CCSc1nnc(CCNC(=O)OC(C)(C)C)o1 | -19 | -22 | 0.6 | -20% | -5
Cc1cccc(N2C(=O)CCC2=O)n1 | -5 | -17 | 1.6 | 2% | 3
O=C(COC(=O)c1ccc(S(=O)(=O)Nc2ccccc2)cc1)NCC1CCCO1 (stereo unspecified) | -13 | · | -1.3 | -1% | ·
O=C(/C=C\c1ccco1)Oc1cccc2cccnc12 | 100 | · | -10 | ? | 8
CCc1ccccc1NC1c2ccccc2C(=O)N1c1cc(C)ccn1 (stereo unspecified) | 1 | -30 | 1.8 | 4% | 1 | Arbovirus inh repeat=-2
Cc1ccc(Cl)cc1NC(=O)c1cnn2c1NC(c1ccco1)CC2C(F)(F)F (stereo unspecified) | 4 | 4 | 7.0 | -2% | -7
Clc1ccc(C2[C@H]3CN(Cc4cccnc4)[C@H](c4ccccc4)C34CC2(c2ccccc2)C4)cn1 (stereo partly specified) | 71 | · | 23 | 13% | ·
CCOC(=O)c1c(NC(C)=O)sc2c(O)c(Br)ccc12 | 36 | -14 | -2.3 | -1% | 16
CCCCn1c(=O)c(CCC(=O)OCC(=O)Nc2ccc(F)c(Cl)c2)nc2ccccc21 | 2 | 11 | 1.3 | -10% | 6
CC(C)c1ccc(NC(=S)NNC(=O)C2CC2)cc1 | -1 | · | -1.8 | -3% | 2
O=C(NCc1ccncc1)C(=O)NCC1OCCCN1S(=O)(=O)c1ccc(F)cc1 (stereo unspecified) | -5 | · | 0.0 | · | ·
CC(=O)C1=C(O)C(=O)N(c2cccc(Br)c2)C1c1ccc(Br)cc1 (stereo unspecified) | 3 | · | 7.9 | · | ·

The list goes on:
SMILES | Mtb bLac sens | YopH inh | RecA splice inh | Mtb H37Rv | Arbovirus inh | others
Cc1ccc2c(CN3CCCc4ccccc43)cc(=O)oc2c1C | -9 | -47 | -2.1 | 2% | 3
Cc1ccsc1/C=N/Nc1nc2ccccc2[nH]1 | · | -26 | 2.3 | 13% | 1
COc1ccc(C2CC(=O)C(C3NCCc4ccccc43)=C(O)C2n2cncn2)cc1 (stereo unspecified) | -1 | · | 4.2 | 7% | 5
CN1C(=O)CSc2ccc(NC(=O)N3CCc4ccccc43)cc21 | 3 | -16 | -0.2 | 16% | 8
COc1cccc2sc(Nc3nnc(-c4ccccc4Cl)o3)nc12 | 81 | -31 | 1.5 | 53% | -22 | Arbovirus inh repeat=-13
CN(C)c1ccc(NC(=O)/C=C/c2c(Cl)cccc2Cl)cc1 | 4 | -13 | -2.6 | -2% | -12
COC(=O)C1=C(c2cc3ccccc3o2)C[C@@H]2CC[C@H]1N2C(=O)NCc1ccc(F)cc1 | -1 | · | 10 | 1% | ·
COc1ccc(C(=O)NCc2nnc(SCC(=O)Nc3cc(Cl)ccc3OC)o2)cc1 | 8 | · | -1.2 | · | ·
Cc1c(NC(=O)c2ccccc2)cccc1[N+](=O)[O-] | 7 | -22 | -1.1 | 2% | -4
COc1cc(OC)cc(C(=O)N(CN2CCCC2=O)c2ccccc2OC)c1 | ? | -13 | 0.8 | -8% | -5

Screening data: PubChem BioAssay, several laboratories
